# Screens: PubChem, SRMLSC
# H5N1 CPE = antiviral screen in MDCK cells, H5N1 avian flu; cytopathic effect, luminescence, 72 h; active compounds read high; no value below 0 was filed and about half of the inactive calls have no number; reference of the scale not given here; hit rate 0.07% among 96,000; inhibition, % at 50 µM; in the data active means inhibition above about 25%
# Starred values were filed as active, the others as inactive; i = inactive.
SMILES,H5N1 CPE
CCC(=O)Nc1nnc(-c2ccc(OC)cc2)o1,0.8
Cc1ccc(C(=O)Nn2cnc3scc(-c4cccs4)c3c2=O)c(O)c1,i
COc1ccc(OC)c(NC(=O)c2cc(-c3ccc(C)cc3O)n[nH]2)c1,i
O=C(Oc1ccc2c(c1)OCO2)c1cc2c(s1)CCC2,i
COc1ccccc1NC(=O)C1=C(C)NC2=C(C(=O)CCC2)C1c1ccc(C)o1 (stereo unspecified),i
CCCS(=O)(=O)N1CCC(C(=O)N2CCC(Cc3ccccc3)CC2)CC1,1.3
COc1ccc(C(=O)Nc2ccc(S(=O)(=O)Nc3nccc(C)n3)cc2)cc1OC,0.8
N#CC1=C(N)NC(SCc2ccc(F)cc2)=C(C#N)C12CCCCC2,i
Cc1ccc(-n2c(O)c(C=NC3CCS(=O)(=O)C3)c3ccccc3c2=O)cc1 (stereo unspecified),i
CN1C(=O)c2ccccc2N(C)C1c1ccc2c(c1)OCO2 (stereo unspecified),0.4
COc1ccc(-c2c(C)oc3ccc(C)cc23)cc1,i
CC(C)CC(OC(=O)c1ccco1)C(=O)NCC1CCCO1 (stereo unspecified),i
Cc1cc(Nc2ccc(Cl)cc2)n(-c2ccccc2)n1,i
CCOc1ccccc1CN(CCc1ccc2c(c1)OCO2)Cc1ccccn1,i
CC1=C(C(=O)Nc2ccc([N+](=O)[O-])cc2)C(c2cccc(C(F)(F)F)c2)NC(=S)N1c1ccccc1 (stereo unspecified),i
c1cc(-c2noc(CC3CCCCC3)n2)ccn1,0.5
COCCCNC(=O)c1cccc(OC)c1OC,i
COc1ccc(-c2cn3c(C)c(C(=O)NCCN4CCOCC4)sc3n2)cc1,1.3
Cn1nc(-c2ccccc2)c(C(=O)Nc2ccc(C(F)(F)F)cc2)c1Cl,i
CCOc1ccc(C2CC(c3ccc(CC)cc3)Nc3nc(N)nn32)cc1 (stereo unspecified),i
O=C(CCc1nc2ccccc2c(=O)[nH]1)NC1CCN(Cc2ccccc2)CC1,i
Cn1c(O)c(C=NCc2ccco2)c(=O)n(C)c1=O,2.0
C=CCn1c(O)c(C=NCCN(C)C)c(=O)[nH]c1=O,0.3
O=C(O)CN(c1ccccn1)S(=O)(=O)c1ccc(Cl)cc1,i
CC(=O)N1CCc2[nH]c3ccccc3c2C1,i
SMILES,H5N1 CPE
O=C(NCc1ccccc1)C(c1cccnc1)N(Cc1ccco1)C(=O)c1ccccn1 (stereo unspecified),i
CCOc1ccc2nc(SCC(=O)NC(=O)NCc3ccco3)[nH]c2c1,i
O=C(c1cnc2ccccn2c1=O)N1CCCc2ccccc21,0.9
CC(OC(=O)c1cccc(NS(C)(=O)=O)c1)C(=O)Nc1ccc(N2CCOCC2)cc1 (stereo unspecified),i
CCc1ccc(N2C(=O)NC(=O)C(Cc3ccc(OC)cc3OC)C2=O)cc1 (stereo unspecified),0.1
COc1ccc(OCCOCCN2CCc3ccccc3C2)cc1,i
CCOc1ccc(NC(=O)C/C(N)=N/O)cc1,0.5
CC1CCCCN1CCNC(=O)c1ccc2c(=O)n(CCc3ccccc3)c(=O)[nH]c2c1 (stereo unspecified),i
CCCOn1c(OCC(C)C)nc2ccccc2c1=O,2.8
O=C(CSc1ncnc2nc[nH]c12)N1CCN(c2ccccc2)CC1,2.6
Cc1c(-c2ccccc2)nc(N)c(C#N)c1-c1ccco1,0.3
Cc1ccc(OCC(=O)O)c(-n2nc3ccccc3n2)c1,i
Cc1ccc(-c2nnc3c4ccccc4c(C)nn23)cc1S(=O)(=O)N1CCN(CCO)CC1,4.9
CCc1ccccc1N(CC(=O)N1CCN(c2ccccc2F)CC1)S(C)(=O)=O,i
CCOC(=O)C1CCCN(C(=O)CN(c2ccc(OC)cc2)S(=O)(=O)c2c(C)noc2C)C1 (stereo unspecified),i
Cn1c(=O)cc(OCC(=O)NCCCN2CCN(c3ccccc3F)CC2)c2ccccc21,0.3
COc1ccc(-n2nc(C(=O)NCC(=O)N3CCN(C)CC3)c3ccccc3c2=O)cc1OC,i
NS(=O)(=O)c1ccc(Nc2ncccc2[N+](=O)[O-])cc1,i
O=C(NN=c1c(=O)c2ccccc2c1=O)c1ccccc1,i
CCC(=O)Nc1cccc(NC(=O)c2ccc(C)c([N+](=O)[O-])c2)c1,i
Cc1ccccc1-c1nc(Cc2ccccc2)no1,i
COc1ccc(C2CC(=O)c3cnc(N)nc3C2)c(OC)c1 (stereo unspecified),0.1
O=C(NCc1ccco1)c1ccc(Cn2c(=O)c3sccc3n(Cc3cccc(F)c3)c2=O)cc1,i
Clc1cc(Cl)cc(Nc2ncn[nH]2)c1,i
O=C(COC(=O)c1n[nH]c2ccccc12)NC(=O)NC1CCCCC1,i

# 18 structures out of the list, sorted by length of the SMILES, ascending.
SMILES,H5N1 CPE
Clc1cc(Cl)cc(Nc2ncn[nH]2)c1,i
Cc1ccccc1-c1nc(Cc2ccccc2)no1,i
CCOc1ccc(NC(=O)C/C(N)=N/O)cc1,0.5
COc1ccc(OCCOCCN2CCc3ccccc3C2)cc1,i
O=C(NN=c1c(=O)c2ccccc2c1=O)c1ccccc1,i
Cc1c(-c2ccccc2)nc(N)c(C#N)c1-c1ccco1,0.3
O=C(CSc1ncnc2nc[nH]c12)N1CCN(c2ccccc2)CC1,2.6
O=C(COC(=O)c1n[nH]c2ccccc12)NC(=O)NC1CCCCC1,i
CCc1ccc(N2C(=O)NC(=O)C(Cc3ccc(OC)cc3OC)C2=O)cc1 (stereo unspecified),0.1
CCc1ccccc1N(CC(=O)N1CCN(c2ccccc2F)CC1)S(C)(=O)=O,i
CCC(=O)Nc1cccc(NC(=O)c2ccc(C)c([N+](=O)[O-])c2)c1,i
O=C(NCc1ccccc1)C(c1cccnc1)N(Cc1ccco1)C(=O)c1ccccn1 (stereo unspecified),i
Cn1c(=O)cc(OCC(=O)NCCCN2CCN(c3ccccc3F)CC2)c2ccccc21,0.3
CC1CCCCN1CCNC(=O)c1ccc2c(=O)n(CCc3ccccc3)c(=O)[nH]c2c1 (stereo unspecified),i
CC(OC(=O)c1cccc(NS(C)(=O)=O)c1)C(=O)Nc1ccc(N2CCOCC2)cc1 (stereo unspecified),i
COc1ccc(-n2nc(C(=O)NCC(=O)N3CCN(C)CC3)c3ccccc3c2=O)cc1OC,i
O=C(NCc1ccco1)c1ccc(Cn2c(=O)c3sccc3n(Cc3cccc(F)c3)c2=O)cc1,i
CCOC(=O)C1CCCN(C(=O)CN(c2ccc(OC)cc2)S(=O)(=O)c2c(C)noc2C)C1 (stereo unspecified),i

# Additional compounds follow:
SMILES,H5N1 CPE
O=C1CC(N2CCC(c3nc4ccccc4o3)CC2)C(=O)N1c1ccc(Cl)c(C(F)(F)F)c1 (stereo unspecified),1.0
CCOC(=O)N1CCN(S(=O)(=O)c2ccc(F)c(C(=O)Nc3cc(C)cc(C)c3)c2)CC1,i
C=C(C)Cc1c(C)c(C#N)c2nc3ccccc3n2c1N1CCCCC1,2.8
CCOC(=O)c1ccc(-n2c(=S)sc3c(=O)[nH]c(C)nc32)cc1,1.6
CCC(=O)N(CCc1ccccc1)Cc1cc2cc3c(cc2[nH]c1=O)OCO3,i
O=C(CSc1nccn1-c1ccc(Cl)cc1)Nc1ccc2c(c1)OCO2,3.2
O=C(NCCCO)c1nnc(Cc2c(F)cccc2Cl)o1,3.3
COC(=O)CSc1nnc(-c2cccnc2)n1-c1cc(OC)cc(OC)c1,2.8
CC(=O)Nc1nonc1-c1nc2ccccc2n1Cc1ccccn1,0.9
CCOC(=O)c1cc2cc(CC(=O)c3ccc(OCC)cc3O)ccc2o1,i
Cc1cc2c(c(=O)n1C1CC1)C(c1cccc(Cl)c1)C(C#N)=C(N)O2 (stereo unspecified),1.0
COCCCNC(=O)c1ccc2c(=O)n(CC3CCCO3)c(=S)[nH]c2c1 (stereo unspecified),i
COc1cc(/C=N/Nc2snc(SC)c2C#N)ccc1O,i
O=C(NCc1cccnc1)c1ccc2c(=O)n(CCCN3CCCC3=O)c(=S)[nH]c2c1,0.4
CCOCCCNC(=O)c1cc2c(-c3ccc(Cl)cc3)nn(C)c2s1,i
CC(=O)c1oc2ccccc2c1N,i
COc1nc2ccc(C)cc2cc1-c1noc(-c2ccccc2)n1,i
O=C(Cn1ncn2cccc2c1=O)N1CCCCC1,0.6
CSc1nc2[nH]c3c(c2c2ncnn12)CCCC3,4.7
FC(F)(F)c1cc(Oc2ccccc2)nc(-c2ccccn2)n1,i
O=C1C2C3C=CC(C3)C2C(=O)N1c1ccccc1 (stereo unspecified),0.5
Cc1cc(=O)n2nc(-c3ccc(C(F)(F)F)cc3)sc2n1,0.5
CCCOc1ccc(-c2nnc(N)s2)cc1,0.3
Cc1nnc(Nc2ccc(C(=O)NCCO)cc2)c2ccccc12,i
O=c1c(=NNc2ccccc2Cl)c(=O)c2ccccc12,2.3
SMILES,H5N1 CPE
Cc1c(NC(=O)CN2CCN(C(=O)c3ccco3)CC2)c(=O)n(-c2ccccc2)n1C,0.8
CCC(=NCCCN(C)C)c1c(O)n(-c2ccc(OC)cc2)c(=O)[nH]c1=O,0.8
Nn1c(SCC(=O)Nc2ccc3c(c2)OCO3)nnc1-c1cccc(Cl)c1,i
Cc1ccc(C)c(SCC(=O)NCc2ccco2)c1,i
CC(C)Cn1cc(C(=O)NCCCOC(C)C)c2c3ccccc3n(C)c2c1=O,0.8
Cn1c(CSc2ccccc2)c(C#N)c2ccccc21,i
Cc1cccc(NS(=O)(=O)c2ccc(C3CCCCC3)cc2)n1,0.5
CCN(CC)S(=O)(=O)c1cc(C(=O)Nc2ccc(Cl)cn2)ccc1C,i
CN(C)S(=O)(=O)N1CCN(C(=O)c2ccccc2)CC1,0.4
COc1ccccc1OCC(=O)NCC1CCCCC1,1.2
Cc1ccc2nc(NC(=O)CN(C)S(=O)(=O)c3cccc4nsnc34)sc2c1,i
CCC(=O)c1cc2c(C)cc(=O)oc2c(C)c1O,0.8
CSc1nc(O)c(C2OC(=O)c3ccccc32)c(=O)[nH]1 (stereo unspecified),0.3
CCOC(=O)C1=C(C)N=C2SC(C(=O)OC)=CC(=O)N2C1c1cccc(OC)c1 (stereo unspecified),i
COC(=O)c1c(N)c2ccccc2[nH]c1=O,0.8
CC(C)c1cc(C(=O)Nc2cc(Br)ccc2O)no1,0.0
COc1ccc(-c2nc(CC(=O)O)cs2)cc1OC,i
COC(=O)c1sccc1NC(=O)c1cc(C)on1,3.5
COc1ccc(OCCOC(=O)c2cccs2)cc1,1.8
Cc1cc(C)n(-c2ccc(OCC(=O)O)nn2)n1,0.3
O=c1[nH]c2ccc(Cl)cc2c(-c2ccccc2)c1CN1CCOCC1,0.9
Fc1ccc(CN2CCCCCCC2)c(F)c1,i
Cc1ccc(C(C)C)c(OC(=O)/C=C/c2ccccc2)c1,i
CN1c2ccccc2C(C)(C)C12C=Nc1c(ccc3ccccc13)O2 (stereo unspecified),i
CCn1c(SCC(=O)NC(C)(C)C)nnc1-c1ccccn1,0.0

# Sorted by number of heavy atoms (descending): some entries from above
SMILES,H5N1 CPE
CN1c2ccccc2C(C)(C)C12C=Nc1c(ccc3ccccc13)O2 (stereo unspecified),i
CCn1c(SCC(=O)NC(C)(C)C)nnc1-c1ccccn1,0.0
COc1ccc(OCCOC(=O)c2cccs2)cc1,1.8

# Carrying on:
SMILES,H5N1 CPE
O=c1c2ccccc2nc(-c2ccccc2)n1Cc1ccc(Cl)cc1,i
CCC(C)(NC(=O)c1ccccn1)C(=O)NC1CCCCC1 (stereo unspecified),i
CN1C(=O)CC(N2CCN(C(=O)c3ccccc3)CC2)C1=O (stereo unspecified),i
CN1CCN(C2CC(=O)N(c3ccc4c(c3)OCCO4)C2=O)CC1 (stereo unspecified),i
COc1ccc(N(CC(=O)Nc2ccc3c(c2)OCO3)S(C)(=O)=O)c(OC)c1,0.5
CCS(=O)(=O)c1ccc(O)c(NC(=O)Nc2ccccc2)c1,i
CC1(C)C2(C#N)C(N)=NC3(OCCO3)C12C#N (stereo unspecified),i
O=C(O)c1ccc(CSc2ncn[nH]2)cc1,0.3
COC(=O)NC1CSCC1OC(=O)CN1C(=O)c2ccccc2C1=O (stereo unspecified),1.5
CC(C)OC(=O)c1cn(-c2ccccc2)nc1-c1ccco1,i
O=C(O)C1C2C=CC(O2)C1C(=O)Nc1ccc(S(=O)(=O)N2CCc3ccccc32)cc1 (stereo unspecified),0.9
CCOc1c(C(N)=O)c(-c2ccccc2)c2c(=O)[nH]c3ccccc3n12,0.3
CN(C)c1cc[nH]c(=O)c1C#N,i
C=CCn1c(SCC(N)=O)nnc1-c1cc(Br)ccc1O,5.7
NC(=O)NC(c1ccccc1)c1cccc2ccccc12 (stereo unspecified),1.4
COc1ccc(C2SCC(=O)Nc3c2c(C)nn3C2CCOC(C)(C)C2)cc1 (stereo unspecified),0.8
O=[N+]([O-])c1cc(F)c(N2CCOCC2)cc1N1CCCCC1,1.9
Clc1ccc(-c2nnc3n2CCCS3)cc1,0.2
CCOC(=O)NC(Nc1ccc(S(N)(=O)=O)cc1)(C(=O)OCC)C(F)(F)F (stereo unspecified),i
Clc1ccc2nc(-c3ccccc3)c(CN3CCOCC3)n2c1,1.9
O=C(CC1SCCNC1=O)Nc1cc(Cl)cc(Cl)c1 (stereo unspecified),0.3
COc1ccccc1-c1noc(CCC(=O)Nc2ccccc2Cl)n1,i
COC(=O)Cn1ncn2cccc2c1=O,i
COc1ccc(CN2C(=O)c3ccccc3C(/C=N\OCc3ccc(F)cc3)C2=O)cc1 (stereo unspecified),7.4
O=S(=O)(Cc1ccccc1)N1CCCCC1,i
SMILES,H5N1 CPE
O=S(=O)(Nc1ccc2c(c1)oc1ccccc12)N1CCCC1,2.8
COc1ccc(CC(=O)Nc2ccc(-c3nnc(-c4ccccc4)o3)cc2)cc1OC,0.3
COc1ccc(OC2C(=O)N(Cc3ccc(F)cc3)C2c2ccc(OC)c(OC)c2)cc1 (stereo unspecified),1.2
COc1cc(-n2cnnn2)ccc1S(=O)(=O)N1CCOCC1,0.5
O=C(Cc1nc(=O)c2ccccc2s1)Nc1ccccc1,i
Cc1cn(S(=O)(=O)c2ccc(Br)c3ccccc23)cn1,0.2
CCOC(=O)c1[nH]cnc1C(=O)NC1CCCCC1,1.4
CCN(CC)CCNC(=O)c1c(O)c2ccccc2n(Cc2ccccc2)c1=O,1.4
CC(=O)NC1CC2CCC(C1)N2Cc1ccc(C)cc1 (stereo unspecified),0.7
COc1ccc(Nc2nc(CC(C)=O)ns2)cc1OC,i
CCOC(=O)N1CCC(N2Cc3cccc(C(=O)NCC4CCN(CC(C)C)C4)c3C2=O)CC1 (stereo unspecified),0.8

# A portion of the library, so the mix of outcomes need not match the whole.
